From PubChem
fixLJ activator: activators of Burkholderia fixLJ two-component system, primary screen, B. multivorans, GFP reporter | B. multivorans fixK-promoter GFP reporter, 18 h; stronger effect = higher value | z-score (test concentration not listed) | hit rate 0.3% among 29,000 | AID 1918990, 2023;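 active = replicate mean overnight rise in green fluorescent reporter signal, 3 or more SD over negative controls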;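 also: score is relative to vehicle wells of the plate; 300 nL library stock went into each well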
The depositor's hits bear a star; & = joins results of further samples. This is a subset (hit frequency here may not be typical).

Structure	fixLJ activator
COCCN(CCOc1ccccc1F)C(=O)c1cc(C)[nH]c(=O)c1	-0.55
CCCCNC(=O)CCSc1nc(-c2ccc3c(c2)OCO3)cc(C(F)(F)F)n1	-0.88
O=C(CSc1c2c(nc3ccccc13)CCC2)Nc1ccc(F)cc1	-0.62
Cc1cc(CNC(=O)C2OCC(=O)N(C)C2c2ccccc2C)on1 (configuration not stated)	-2.52
Cc1cc(C(C)(C)C)cc(S(=O)(=O)NC(CO)CO)c1C	-0.39
COc1ccc(/C=C(\NC(=O)c2ccccc2)C(=O)NC2CCCCC2)cc1	-0.7
CCN(CC)c1cc(C)c2cc(NC(=O)/C=C/c3ccc(C)cc3)ccc2n1	-0.03
CCCCn1c(COc2cccc(OC)c2)nc2ccccc21	-2.72
COc1ccnc(N2CCCC(CNC(=O)Cc3cn(C)c4ccccc34)C2)n1 (configuration not stated)	-0.81
CC1CCN(S(=O)(=O)c2ccc3c(c2)N(CC(=O)NCC(C)c2ccccc2)C(=O)CO3)CC1 (configuration not stated)	0.36
C=CCn1c(SC(CC)C(=O)N(C)C)nnc1C1CCNCC1 (configuration not stated)	0.09
Cc1nn(C)c(C)c1CCC(=O)N1CCC2(CC1)OCCc1cc(C(=O)O)sc12	0.17
CCN(CC)CCNC(=O)c1cn(CCOC)c(=O)c2c1c1ccccc1n2C	-1.52
C[C@@]1(O)CCOC2(CCN(S(=O)(=O)c3cccc(Cl)c3)CC2)C1O (some centres not stated)	-1.1
Cc1nc(CN2CCCC(CNC(=O)c3ccon3)C2)n[nH]1 (configuration not stated)	-0.62
COc1ccc(CCNC(=O)c2ccc(Cn3c(=O)c4ccccc4n(Cc4ccc(F)cc4Cl)c3=O)cc2)cc1OC	-0.79
O=C(O)c1cccc(CN2CCN(CCN3CCOCC3)CC2)c1	-0.7
CNS(=O)(=O)c1ccc(NC(=O)c2ccccc2C(=O)O)cc1 (tested in a mixture with another compound)	-1.63
CCOC(=O)c1ccc(N2C(=O)c3[nH]nc(-c4ccccc4)c3C2c2ccc(C(C)C)cc2)cc1 (configuration not stated)	0.76
CCc1ccccc1NC(=O)C1CCCN(c2cnccn2)C1 (configuration not stated)	-1.63
COc1cccc(OCc2cc(=O)n3cc(C)sc3n2)c1	-1.21
COc1ccc(CCNC(c2ccc(F)cc2)c2nnc(-c3ccccc3Cl)o2)cc1OC (configuration not stated)	-1.24
COc1ccccc1OCc1cc(C(=O)NC2CC3CCC2C3)n[nH]1 (configuration not stated)	-1.02
O=C(NCCc1cnc[nH]1)C1CCCN(C2CCN(Cc3cccnc3)CC2)C1 (configuration not stated)	0.37
Cc1nnc(CN(C)C(=O)NCC2(c3ccccc3F)CCCC2)o1	-0.89
CN(CCc1cnn(C)c1)C(=O)CSc1nnc(N)s1	0.66
COc1ccc(-c2ccc3c(N)c(C(=O)Nc4cc(F)ccc4C)sc3n2)cc1	-0.66
O=C(c1ccc(Cl)cc1)c1cn(Cc2ccccc2)c2cc3c(cc2c1=O)OCCO3	0.23
Cc1ccc(CNC(=O)CN2C(=O)COc3ccc(S(=O)(=O)N4CCC(C)CC4)cc32)cc1	-0.26
CCOc1ccc(N(CC(=O)NCc2ccccc2Cl)S(=O)(=O)c2c(C)[nH]c(=O)[nH]c2=O)cc1	-0.6
CCN(Cc1ccccc1)C(=O)Cn1c(=O)n(-c2ccc(OC)cc2OC)c(=O)c2c(C)c(C)sc21	-2.76
COc1cccc(NC(=O)c2sc3nc(C)c(C(=O)Nc4ccc(C)cc4C)c(-c4ccc(C)o4)c3c2N)c1	-2.68
O=C(NCC1CCN(C(=O)c2ccc(-n3cnnn3)cc2O)CC1)c1ccco1	0.16
CCCOc1cccc(C(C(=O)O)N(C)Cc2ncc(C)[nH]2)c1 (configuration not stated)	-1.5
Cc1ccc(NC(=O)CCNC(=O)c2ccc(Cn3cnnn3)cc2)c(C)c1	-0.42
Cc1cccc(CNC(=O)C2CCCN(C3CCN(Cc4ccncc4)CC3)C2)n1 (configuration not stated)	-0.78
CCOc1ccc(S(=O)(=O)Nc2ccc3oc4c(c3c2)CC(C)CC4)cc1 (configuration not stated)	-0.92
Cc1cc(C)cc(NC(=O)c2ccc3oc(=O)c(S(=O)(=O)c4ccc(F)cc4)cc3c2)c1	-0.39
Cc1cc(N2CCC(CNC(=O)CC3C(=O)N(C)C(=O)N3C)CC2)cc(C)n1 (configuration not stated)	-0.24
CCOc1ccc(CCNC(=O)CSc2nnnn2-c2ccccc2Cl)cc1OCC	-0.97
CCC(C(=O)NC1CCCCC1)n1c(SCc2ccccc2F)nc2ccncc21 (configuration not stated)	-1.58
N#Cc1c(C(F)(F)F)cc(-c2cccs2)nc1SCC(=O)Nc1cccc(Br)c1	-1.33
Cc1cc(-c2ccccc2)nc2cc(C(=O)Nc3ccc(Cl)c(Cl)c3)nn12	0.91
CCc1ccc(NC(=O)Cn2ncc3c(C)n(Cc4cccc(Cl)c4)c(C)c3c2=O)cc1	-2.64
CCCOc1ccc(C(=O)Nc2sc3c(c2C(=O)OCC)CCCCC3)cc1	0.2
COc1cccc(N2CCN(C(=O)C3CCCN(S(=O)(=O)c4cccc5nsnc45)C3)CC2)c1 (configuration not stated)	-1.92
COc1ccccc1C(=O)Nc1ccc(-c2cc(C(F)(F)F)nn2-c2ccccc2)cc1	-2.13
O=C(COc1cccc(F)c1)Nc1ccc(CC(=O)NC2CC2)cc1	-1.38
COc1ccccc1C(=O)Nc1cccc(OCc2cc(=O)n3c4c(sc3n2)CCCC4)c1	-1.9
CC(C)Cn1c(=O)c2ccccc2n2c(CCC(=O)Nc3cccc(Cl)c3)nnc12	-0.1
Cc1cc(=O)n2[nH]c(CC(=O)NCc3cn[nH]c3-c3ccc(F)cc3)nc2n1	-0.07
Cc1cc(C(F)(F)F)n(-c2nc(C(=O)NCCn3cncn3)cs2)n1	-0.7
COc1ccccc1CNC(=O)Cn1ncc2c(=O)oc3ccc(C)cc3c21	-2.29
CCc1ccc(CNCc2c(C(=O)O)c(C)n(Cc3c(F)cccc3Cl)c2C)cc1	-0.62
Cc1ccc2oc(-c3ccc(C)c(NC(=O)/C=C/c4ccco4)c3)nc2c1	-2.65
CCOC(=O)[C@H](CCc1ccccc1)N[C@@H](C)C(=O)N1CCC[C@H]1C(=O)O	-1.37&-0.53

Remaining list, next part.
Structure	fixLJ activator
CCC1C=CCN1C(=O)c1ccc2c(c1)[nH]c(=O)n2C1CCC(O)CC1 (configuration not stated)	0.15
CC(C)=CCN1CCN(C(=O)c2ccc(Cl)cn2)C2CS(=O)(=O)CC21 (configuration not stated)	-0.36
CC(C)Sc1ncc(Cl)c(C(=O)Nc2ccc(S(=O)(=O)N3CCCCC3C)cc2)n1 (configuration not stated)	1.7
Cc1ccc(Cn2c(C)c(CNCCCc3ccccc3)c(C(=O)O)c2C)cc1	-0.39
Fc1ccc(-c2cc(C(F)(F)F)nc(NCc3ccccc3)n2)cc1	-0.24
CCOC(=O)c1oc2ccc(S(=O)(=O)n3nc(-c4ccc(Br)cc4)cc3N)cc2c1C	0.42
Cc1ccc(CCNC(=O)CNS(=O)(=O)c2ccc(F)c(C)c2)o1	-0.15
COC(=O)c1cc(OCC2CCC2)cc(C(=O)N2CCCC2C(N)=O)c1 (configuration not stated)	0.24
CCOc1ccc(CCNC(=O)CCc2c(C)nc3cc(-c4ccccc4OC)nn3c2C)cc1	-0.05
COCCN1CCCC2(CCN(c3cc(=O)[nH]cn3)C2)C1=O (configuration not stated)	0.57
Cc1noc(C)c1-c1ccc(S(=O)(=O)NC(C)Cc2ccsc2)s1 (configuration not stated)	0.37
Cc1ccc(Cl)cc1NC(=O)CCc1c(C)nc2c3cccnc3nn2c1C	-3.46
COc1cccc(C2CCN2C(=O)NCc2ccc(OC)cc2OC)c1 (configuration not stated)	-1.27
CC(C)c1nc(CN(C)C(=O)c2cnc(N)nc2-c2ccccc2)cs1	1.03
O=C(NCCCCc1ccccc1)c1nn(-c2ccccc2)nc1CO	-2.22
CSc1ccc(CCNC(=O)CCc2c(C)nc3c(c(C)nn3-c3ccc(C)c(C)c3)c2C)cc1	0.09

No new results follow: an excerpt of the list.
Structure	fixLJ activator
CC(C)Sc1ncc(Cl)c(C(=O)Nc2ccc(S(=O)(=O)N3CCCCC3C)cc2)n1 (configuration not stated)	1.7
Cc1ccc(Cn2c(C)c(CNCCCc3ccccc3)c(C(=O)O)c2C)cc1	-0.39
Fc1ccc(-c2cc(C(F)(F)F)nc(NCc3ccccc3)n2)cc1	-0.24
CCOC(=O)c1oc2ccc(S(=O)(=O)n3nc(-c4ccc(Br)cc4)cc3N)cc2c1C	0.42
Cc1ccc(CCNC(=O)CNS(=O)(=O)c2ccc(F)c(C)c2)o1	-0.15
COC(=O)c1cc(OCC2CCC2)cc(C(=O)N2CCCC2C(N)=O)c1 (configuration not stated)	0.24
CCOc1ccc(CCNC(=O)CCc2c(C)nc3cc(-c4ccccc4OC)nn3c2C)cc1	-0.05
COCCN1CCCC2(CCN(c3cc(=O)[nH]cn3)C2)C1=O (configuration not stated)	0.57
Cc1noc(C)c1-c1ccc(S(=O)(=O)NC(C)Cc2ccsc2)s1 (configuration not stated)	0.37
Cc1ccc(Cl)cc1NC(=O)CCc1c(C)nc2c3cccnc3nn2c1C	-3.46
COc1cccc(C2CCN2C(=O)NCc2ccc(OC)cc2OC)c1 (configuration not stated)	-1.27
CC(C)c1nc(CN(C)C(=O)c2cnc(N)nc2-c2ccccc2)cs1	1.03
O=C(NCCCCc1ccccc1)c1nn(-c2ccccc2)nc1CO	-2.22
CSc1ccc(CCNC(=O)CCc2c(C)nc3c(c(C)nn3-c3ccc(C)c(C)c3)c2C)cc1	0.09

(listing goes on)
Structure	fixLJ activator
Cc1ccc(CNC(=O)CN(C)S(=O)(=O)c2ccc3c(c2)c(=O)n(C)c(=O)n3C)cc1	-1.28
Fc1cccc(NCc2ccccc2-c2nnc(-c3ccccc3Cl)o2)c1	2.06
CC1=C(C(=O)OCC2CCCCC2)C(c2ccc(F)cc2F)CC(=O)N1 (configuration not stated)	0.24
COc1ccc(-c2cc(C(=O)NCc3ccc(F)cc3)no2)cc1	-0.92
Cc1cccc(Cn2c(SCc3ccc(C(=O)NCc4ccccc4F)cc3)nc3ccncc32)c1	-2.83
CSc1ccc(CCNC(=O)CCc2c(C)nc3c4cccnc4nn3c2C)cc1	-1.33
COc1cc2c(cc1OC)C1(CCN(C(=O)C3CCC(=O)NC3)CC1)OCC2 (configuration not stated)	-0.34
Cc1noc(CN2CCC(O)[C@]3(CCCN(C(=O)CC4=CCCC4)C3)C2)n1 (some centres not stated)	-0.17

COCC(C)n1c(CCCC(=O)N(C)C2CCCCC2)nc2cccnc21 (configuration not stated)
  fixLJ activator: -2.13
Cc1ccccc1C(=O)N1CCC(C(=O)Nc2ccc(F)cc2F)CC1
  fixLJ activator: -1.25
COc1ccc(CNC(=O)Cn2c(=O)oc3cc(S(=O)(=O)N4CCC(C)CC4)ccc32)cc1
  fixLJ activator: 1.63
Cc1[nH]c2c(C)ccc(C)c2c1CC(=O)N(C)CCCc1cnn(C)c1
  fixLJ activator: -0.63
CCCCN(CC)CCCNC(=O)Nc1sc2nc3n(c(=O)c2c1C)CCC(C)CC3 (configuration not stated)
  fixLJ activator: 0.81
COc1cc(C2CC(=O)c3c([nH]c(C(=O)OCC4CCCCC4)c3C)C2)cc(OC)c1OC (configuration not stated)
  fixLJ activator: 0.53
O=C(NCC(F)(F)F)N(CCCn1ccnc1)Cc1ccncc1
  fixLJ activator: 1.07
O=C1NC2(CCN(C(=O)CCN3CCCC3=O)CC2)CC1c1ccccc1 (configuration not stated)
  fixLJ activator: 0.29
Cc1cc(C)cc(C(=O)N2CCC3(CC2)CC(C(=O)O)N(C(=O)C2CC2)C3)c1 (configuration not stated)
  fixLJ activator: -0.69
Cc1nc(N(C)C)nc(N2CC(O)C(Cc3ccnc4ccccc34)C2)c1C (configuration not stated)
  fixLJ activator: -0.07
Cc1cc(C)nc(SC(C)C(=O)Nc2ccc(Oc3nn[nH]n3)cc2)n1 (configuration not stated)
  fixLJ activator: 0.35
CCOC(=O)c1cnc2ccc(OCC)cc2c1Nc1ccc(OCc2ccccc2Cl)cc1
  fixLJ activator: -1.77
CCC12CN3CC(CC)(CN(C1)C3c1ccc(OCc3ccccc3)cc1)C2=O (configuration not stated)
  fixLJ activator: -1.57
CCC1(C)CC(=O)c2c(ccc3oc(C(=O)NCc4ccccc4)c(C)c23)O1 (configuration not stated)
  fixLJ activator: 1.06
Cc1ccccc1-n1c(/C=C/c2c(C)[nH]c3ccccc23)nc2ccccc2c1=O
  fixLJ activator: -0.55
Cn1ccnc1CN1C(=O)CC2C1CCN2Cc1cc(C(C)(C)C)n[nH]1 (configuration not stated)
  fixLJ activator: 0.3
Cn1c(=O)c2sccc2n2c(CCC(=O)N3CCN(c4ccc(F)cc4)CC3)nnc12
  fixLJ activator: -0.53
Cc1c(CCC(=O)NCCc2ccc(Cl)cc2)c(=O)oc2c(C)c(O)ccc12
  fixLJ activator: -1.76
Cc1nn(-c2ccccc2)c(OC(=O)c2cccc(Br)c2)c1S(=O)(=O)c1ccccc1
  fixLJ activator: 1.77
Cc1cccc(N(CC(=O)NCc2ccccc2)S(C)(=O)=O)c1C
  fixLJ activator: -0.22
Nc1c(C(=O)Nc2ccc(Br)cc2)sc2nc(-c3ccncc3)ccc12
  fixLJ activator: -1.57
C=CCN1CC(C(=O)NCC2CCN(C(=O)Cc3c(C)n[nH]c3C)CC2)CC1=O (configuration not stated)
  fixLJ activator: -0.77
CCc1nc(CN2CCC(CNC(=O)c3ccc(-n4cccn4)cc3)CC2)no1
  fixLJ activator: -1.38
O=C(C1CCCCCC1)N1CC(O)C(Cc2cnccn2)C1 (configuration not stated)
  fixLJ activator: -0.33
CNC(=O)C1CCCN1C(=O)c1cccc(-c2nc3ccccc3o2)c1 (configuration not stated)
  fixLJ activator: -0.13

CC(C)(C)C(=O)Cn1c(=O)n(-c2ccccc2)c(=O)c2c3c(sc21)CCC3
  fixLJ activator: -1.11
Cc1ccc(S(=O)(=O)N2CC(N3CCN(c4ncccc4Cl)CC3)C2)cc1
  fixLJ activator: 1.27
CCOc1ccc(-n2nc(CO)c(C(=O)NCc3cccs3)n2)cc1
  fixLJ activator: -0.92
Cc1nn(C)c2nc(-c3ccccn3)nc(N(C)CC(C)N3CCOCC3)c12 (configuration not stated)
  fixLJ activator: -0.39
